rRNA inh HTS: inhibits bacterial ribosomal RNA function over humanized ribosomes. E. coli WT GFP vs humanized-ribosome RFP mutants, fluorescence, 24 h; hits give low values; DMSO median 0, no signal -100. GFP signal change (wild-type ribosome), % (no concentration beside the values). 350,000 tested, 1.6% active. AID 720706;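 active = significant combined selectivity score with lowered wild-type GFP, culture density cut under 30%, mutant RFP and density less affected; inactive = any of these conditions unmet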; note: one replicate is shown; some compounds called inactive have numbers as strong as hits
RanGTP-Imp inh: disruptors of Ran-importin-beta complex formation – biochemical, FRET, CFP-Ran, YFP-importin-beta, homogeneous, primary screen | 300,000 tested, 1.1% active | inhibition, % (test concentration not listed) | cell-free CFP-Ran/YFP-importin-beta FRET ratio | AID 2216;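 active = most replicates above 15%; inconclusive = exactly half above 15%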;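 note: 0% = DMSO wells and 100% = Ran loaded with GDP instead of GTP; wells of about 40 µL received 100 nL stock; the first replicate is given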
MLL AF4-AF9 inh: blocks AF4 peptide binding to human AF9; AlphaScreen, biotin-AF4 peptide binding to FLAG-AF9; AID 651704; inhibition, % at 10 µM; 350,000 tested, 0.47% active;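 active = every replicate reaching a set inhibition limit, whatever the replicate mean, cut at about 25% in these data; inconclusive = mean inhibition reaches that limit but some replicates miss it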;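 note: 0% = plate neutral control median and 100% = total signal loss; the record names both 10 and 1 µM as test concentration; the first replicate is given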
Target sequence (P42568 whole entry, looked up): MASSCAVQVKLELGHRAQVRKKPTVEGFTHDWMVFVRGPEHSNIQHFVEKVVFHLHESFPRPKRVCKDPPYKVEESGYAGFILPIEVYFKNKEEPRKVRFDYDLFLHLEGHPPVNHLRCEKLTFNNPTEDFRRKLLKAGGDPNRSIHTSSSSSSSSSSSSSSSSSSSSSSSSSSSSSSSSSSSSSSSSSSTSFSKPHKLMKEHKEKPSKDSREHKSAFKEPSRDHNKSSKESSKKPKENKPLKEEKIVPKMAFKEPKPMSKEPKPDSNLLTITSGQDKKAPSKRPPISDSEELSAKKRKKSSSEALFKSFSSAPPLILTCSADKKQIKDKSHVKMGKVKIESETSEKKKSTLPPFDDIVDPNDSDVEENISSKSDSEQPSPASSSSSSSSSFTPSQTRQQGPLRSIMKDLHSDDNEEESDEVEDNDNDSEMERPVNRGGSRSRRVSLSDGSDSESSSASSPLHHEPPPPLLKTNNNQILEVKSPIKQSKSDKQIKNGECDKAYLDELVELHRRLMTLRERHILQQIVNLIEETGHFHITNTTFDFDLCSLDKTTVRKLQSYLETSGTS
FGF22 binding: shifts melting point of recombinant human FGF22; recombinant FGF22 thermal shift, SYPRO orange fluorescence; percent of sucrose octasulfate shift, DMSO zero; calls only at 9.99 µM; 340,000 tested, 1.5% active; AID 651658;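 active = melting point raised past a set limit in the mean and every replicate; inconclusive = no clear call; three in four hits are not shown here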
Target sequence (Q9HCT0 whole entry, looked up): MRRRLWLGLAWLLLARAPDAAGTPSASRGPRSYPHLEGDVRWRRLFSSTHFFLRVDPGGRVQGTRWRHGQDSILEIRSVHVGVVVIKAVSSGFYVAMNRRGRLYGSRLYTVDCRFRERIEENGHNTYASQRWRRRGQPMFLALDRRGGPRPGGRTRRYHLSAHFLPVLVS
T cruzi inh: blocks replication of Trypanosoma cruzi. T. cruzi beta-gal in NIH3T3, luminescence, 90 h. inhibition, % (concentration not given with the values). 300,000 tested, 1.4% active;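 active = mean inhibition across valid replicates above about 55%, limit read from the data; inconclusive = mean below that limit but half or more replicates reach it; inactive = mean below it, under half of replicates reach it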;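 note: signal also drops with host cell toxicity which is not excluded here; 0% = plate median of DMSO wells and 100% = zero luminescence signal; higher percent means less beta-gal luminescence so fewer parasites; stock transfer was 50 nL into about 50 µL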
Calb FLC: affects C. albicans growth with fluconazole; C. albicans CaCi-2 (fluconazole-resistant clinical isolate) + fluconazole, Alamar Blue growth, 48 h; growth inhibition, % (test concentration not listed); 300,000 tested, 0.57% active;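 active = most replicates above 75%; inconclusive = exactly half above 75%; inactive = most below 75%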;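 note: all wells also contain fluconazole at 8 µg/ml as a sub-toxic cotreatment; 0% = median of DMSO wells and 100% = median of geldanamycin control wells; wells of about 8 µL received 7.5 nL stock; the first replicate is given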
Beta cell apopt: blocks beta cell apoptosis; INS-1E cytokine-induced death, ATP luminescence, 48 h; percent of positive-control rescue, neutral wells zero; protection from apoptosis, % (no concentration beside the values); 300,000 tested, 0.8% active;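 active = all replicates at 75% or more, or half of them and the mean; inconclusive = half reach 75% but not the mean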;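 note: 0% = cytokine-treated negative control wells and 100% = positive control rescue; higher means more ATP so stronger rescue from cytokine killing; wells of about 40 µL received 100 nL stock; the first replicate is given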
ALR H2O2 inh: human ALR oxidase inhibition via reduced H2O2 | P55789 | purified ALR, DTT oxidation, H2O2 HRP-luminol luminescence | inhibition, % (test concentration not listed) | 290,000 tested, 3.8% active;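 active = mean and each replicate at 75% or more; inconclusive = only one of the two met; inactive = neither met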;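 note: stock transfer was 7.5 nL into about 7.5 µL; 0% = neutral wells and 100% = wells with inactivated enzyme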
Target sequence (P55789 whole entry, looked up): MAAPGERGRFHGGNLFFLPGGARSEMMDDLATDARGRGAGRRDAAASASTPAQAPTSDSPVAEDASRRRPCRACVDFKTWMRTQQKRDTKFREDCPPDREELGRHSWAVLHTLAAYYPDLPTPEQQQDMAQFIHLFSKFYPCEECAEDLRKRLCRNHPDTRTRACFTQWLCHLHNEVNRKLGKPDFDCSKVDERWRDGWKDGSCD
rRNA inh HTS OD600: recorded beside rRNA inh HTS, whose call it bears; OD600 change, %; measured here: OD600 growth;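 optical density of the mix in the first replicate; 0 = DMSO median and -100 = no signal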
rRNA inh HTS RFP: second read-out of rRNA inh HTS, no call of its own (marks repeat the call); RFP signal change, %; measured here: RFP humanized mutant strains;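 first replicate; 0 = DMSO median and -100 = no signal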
* hit, by the source's call; i = inactive; ? = inconclusive; . = no result given. Only part of the results is shown; rates above refer to the full screens.

SMILES | rRNA inh HTS | rRNA inh HTS OD600 | rRNA inh HTS RFP | RanGTP-Imp inh | MLL AF4-AF9 inh | FGF22 binding | T cruzi inh | Calb FLC | Beta cell apopt | ALR H2O2 inh
COc1ccccc1NC(=O)c1ccc(S(=O)(=O)N2CCOCC2)cc1 | . | . | . | 1.4 | . | . | -8 | -9 | -1 | -7
Cc1c(C(=O)OCC(=O)N2CC(=O)Nc3ccccc32)oc2ccccc12 | . | . | . | 2.0 | . | . | -10 | -1 | 0 | -9
OCCN1CCN(CC#CCC(c2ccccc2)c2ccccc2)CC1 | -1 | -6 | 3.5 | -2.7 | 3.7 | i | 14 | -3 | -5 | .
COCC1CCCN(Cc2cn(Cc3ccccc3)nc2-c2cc3ccccc3o2)C1 (stereo not drawn) | -24 | -49 | 8.7 | 6.2 | 5.4 | i | ? | -13 | 1 | -71
Cc1ccc(C(=O)Nc2cccc3ccccc23)o1 | -8 | -2 | -2.1 | -0.4 | 6.1 | i | 2 | 0 | . | 33
CC(C)(C)c1ccc(C(=O)NC(=S)N2CCCCCC2)cc1 | -55 | -72 | -17 | . | 3.5 | i | 49 | . | -3 | 0
CCCOc1ccc(-c2c(C(=O)N/N=C/c3ccncc3)nnn2-c2nonc2N)cc1 | 1 | 6 | 0.8 | -3.6 | 1.2 | i | -3 | -4 | -2 | -5
O=S(=O)(c1cccc2nsnc12)N1CCN(C/C=C/c2ccccc2)CC1 | . | . | . | -2.3 | . | . | 21 | -4 | 4 | -10
O=C(O)c1cc(S(=O)(=O)NCc2ccco2)c(Cl)cc1Cl | . | . | . | 2.5 | . | . | -8 | -9 | -5 | 3
C(=N\Nc1nc2ccccc2[nH]1)/c1cccc2cccnc12 | -53* | -15* | -14* | -2.1 | . | i | 31 | 2 | . | 71
CC(C)n1c(SCC(=O)c2ccc3c(c2)OCCO3)nc2c1c(=O)n(C)c(=O)n2C | . | . | . | 2.3 | . | . | 14 | -3 | -7 | -3
COC(=O)C1=C(C)N(Cc2ccccc2)C(=NCCc2ccccn2)N[C@H]1c1cccc(F)c1 | 2 | -32 | 36 | 1.0 | 3.5 | i | 26 | -11 | -1 | -1
CCc1ccc(-c2nc(CN3CCC(C(=O)NCCN(CC)c4ccccc4)CC3)c(C)o2)cc1 | . | . | . | 3.0 | . | . | 30 | ? | 18 | 99*
COc1ccc(C)cc1NC(=O)C1CCCN(S(=O)(=O)c2cnc[nH]2)C1 (stereo not drawn) | 6 | 2 | -3.6 | 2.1 | -1.3 | i | 1 | -1 | -6 | 46
Cc1ccc(-c2noc(CCCC(=O)NC3CCCC3)n2)cc1 | 0 | 0 | 1.6 | ? | 0.0 | i | -10 | 8 | 8 | -1
CCOC(=O)c1cnc2c(-c3ccccc3OC)c(C)nn2c1C | -3 | -5 | -2.6 | -0.7 | -0.2 | i | 33 | 35 | 4 | 2
COc1ccc(S(=O)(=O)NCCSC(C)(C)C)cc1 | . | . | . | -4.2 | . | . | -5 | 10 | -1 | 1
C#Cc1ccc([C@@H]2C=C(C(=O)NCc3ccccc3)O[C@H](OCCCCO)C2)cc1 | . | . | . | 2.1 | -3.9 | i | 12 | 6 | -4 | -17
O=C(COC(=O)C1CCN(S(=O)(=O)c2ccc3c(c2)OCCO3)CC1)Nc1cc(C(F)(F)F)ccc1Cl | 1 | -5 | -0.4 | -2.9 | -0.7 | i | -7 | 5 | -5 | -1
C/C(=N\NC(=O)c1nn(C)cc1Br)c1cccc(NC(=O)C2CCCC2)c1 | . | . | . | 2.8 | . | . | -9 | 16 | 4 | -6
CCOC(=O)N1CCN(C(=O)CCCn2c(=S)[nH]c3ccc(Br)cc3c2=O)CC1 | . | . | . | 1.0 | . | . | -3 | -3 | -8 | .
Cc1cnc(C(=O)OCc2ccc(Br)cc2)cn1 | 0 | 5 | -2.8 | 2.4 | 3.8 | i | -4 | -4 | -5 | .
O=C(Nc1ccc(Br)cc1)c1ccccc1CC[N+](=O)[O-] | . | . | . | -3.0 | . | . | -16 | -12 | . | -38
CCc1ccc(NC(=O)Cn2cnc3c(=O)n(C)c(=O)n(C)c32)cc1 | -10 | 3 | 2.5 | 0.5 | 2.4 | i | -14 | 6 | -14 | .
OCCCNc1nnc(-c2ccccc2)c2ccccc12 | 14 | 13 | 1.5 | 1.7 | -7.2 | i | 6 | -6 | -3 | 1
NC(=O)c1cc(S(=O)(=O)Nc2ccccc2)cs1 | 12 | 18 | 4.2 | -1.2 | -2.0 | i | -8 | 3 | -2 | -7
CCOC(=O)Cn1c2c(c(=N)c3c1CCC3)CCCC2 | 16 | 7 | 7.7 | 4.3 | -6.9 | i | 8 | 6 | -5 | -2
CN(CCc1ccccn1)Cc1ccc(Cl)cc1Cl | . | . | . | 3.2 | . | . | 44 | 6 | -2 | -2
O=C(NCCN1C(=O)S/C(=C/c2cccnc2)C1=O)C1=NN(c2ccccc2)C(=O)CC1 | 1 | 5 | -2.7 | . | -1.4 | i | . | . | -5 | 58
CCN(CC)C(=O)CN(c1cc2c(cc1OC)oc1ccccc12)S(=O)(=O)c1ccccc1 | . | . | . | 2.5 | . | . | 26 | 10 | 34 | .
CCC1CCCCN1C(=O)c1cc2c(=O)n3cccc(C)c3nc2s1 (stereo not drawn) | . | . | . | 3.0 | . | . | 4 | 3 | 3 | 8
CCCCC(O)(C(NC=O)C(=O)OC)C(F)(F)F (stereo not drawn) | . | . | . | 2.1 | . | . | -2 | -1 | -9 | -6
Oc1ccc(/C=C/c2ccc3ccccc3n2)cc1 | -47 | -76 | -9.3 | -22 | 3.1 | i | 10 | -12 | 12 | 30
COc1ccc(N(CC(=O)NCCSc2ccccn2)S(=O)(=O)c2ccccc2)cc1Cl | -35 | -33 | -3.2 | 3.3 | 1.5 | i | 13 | -1 | . | -22
Cc1ccc(CNC(=O)C2CCN(c3nn4c(=O)cc(C)nc4s3)CC2)cc1 | 3 | 6 | -1.9 | -0.3 | 2.4 | i | 3 | -9 | -5 | 0
CCCN(CCC)S(=O)(=O)c1ccc(C(=O)Nc2nc3c(s2)CCc2ccccc2-3)cc1 | . | . | . | 7.3 | . | . | 13 | 9 | 14 | .
COc1cccc(-c2csc(N3CCN(C(=S)Nc4ccc(Cl)cc4)CC3)n2)c1 | -34 | -39 | 5.2 | -3.3 | 6.2 | i | 12 | 1 | -1 | -5
O=C(/C=C/c1ccccc1)NCCSc1ccc(Cl)cc1 | . | . | . | -0.6 | . | . | 6 | -6 | -2 | .
CCCOc1ccc(C(CC(=O)O)NS(=O)(=O)c2ccc(NC(C)=O)cc2)cc1 (stereo not drawn) | . | . | . | -1.2 | . | . | -35 | 4 | 1 | 4
COc1ccc(NC(=O)C2CCN(c3cc(C)nc(-c4ccccc4)n3)CC2)cc1 | . | . | . | ? | . | . | 5 | 1 | -2 | -7
COc1cccc(CN(C)CC(=O)Nc2sc3c(c2C#N)CCC3)c1 | -8 | 3 | 8.9 | 2.9 | -1.0 | i | 12 | -8 | -4 | .
CCc1nn(C(CC)C(=O)NCC(C)c2ccccc2)c(=O)c2cc3occc3n12 (stereo not drawn) | -37 | -36 | -1.8 | 2.2 | 1.0 | i | -7 | 21 | . | .
Cc1nc(N2CCN(c3ccccn3)CC2)c2c(C)c(C(=O)Nc3c(C)cc(Br)cc3C)sc2n1 | 6 | 9 | 0.5 | 1.5 | -0.1 | i | 20 | -5 | 4 | -14
Cc1c(NC(=O)C(C)N2C(=O)NC3(CCC(C)CC3)C2=O)c(=O)n(-c2ccccc2)n1C (stereo not drawn) | 10 | 15 | 2.3 | -0.2 | -0.7 | i | -5 | -3 | -3 | 19
CS(=O)(=O)c1nc(-c2ccc(Br)cc2)cc(-c2ccccc2)c1C#N | . | . | . | 5.5 | . | . | 36 | 1 | 19 | 5
CCCCC(CC)COP(=O)(OCC(CC)CCCC)OCC(CC)CCCC (stereo not drawn) | 3 | 5 | 0.3 | . | . | i | . | . | -2 | -2
O=C(O)c1ccccc1CSc1ncn[nH]1 | . | . | . | 0.4 | . | . | -9 | 6 | 7 | -1
Cc1nnc(C)c2c(C)n(-c3ccc(Cl)c(N)c3)c(C)c12 | 18 | 8 | 3.3 | -3.7 | 13 | i | 8 | -15 | -4 | -23
CCC(C)(C)C1CCC(=NNC(=S)Nc2cccnc2)CC1 (stereo not drawn) | 13 | 11 | 2.8 | 2.1 | 5.7 | i | -7 | -7 | 8 | .
COc1ccc(NC(=O)c2c([N+](=O)[O-])c(C(C)(C)C)nn2C)cc1 | 2 | 9 | -1.4 | -0.3 | 24 | i | -19 | -34 | 5 | -7
CC1(C)Cc2c(cnn2-c2cccc(F)c2)C(NC(=O)CN2CCCC2=O)C1 (stereo not drawn) | 8 | 7 | 1.6 | 3.5 | 0.7 | i | 1 | 6 | -3 | -4
CN(CC(=O)Nc1c(Cl)cccc1Cl)C(=O)Cc1ccc2c(c1)CCC2 | -5 | -5 | 2.7 | 1.4 | -1.1 | i | -5 | -4 | -6 | 5
CC1CCN(S(=O)(=O)c2ccc3c(c2)N(CC(=O)NCCCOC(C)C)C(=O)CO3)CC1 | 2 | 2 | -0.8 | 27 | -23 | i | -13 | -3 | -2 | -2
O=C(NNC(=O)c1sccc1-n1cccc1)Nc1ccccc1 | 17 | 3 | 4.8 | -2.5 | 0.8 | . | 1 | 11 | -9 | 1
O=C(/C=C/c1ccccc1)NCC(=O)N/N=C/c1ccco1 | 4 | 3 | 2.2 | 3.2 | -9.6 | i | 11 | -2 | 0 | 0

Compounds above that have a COOH group (3):
SMILES | rRNA inh HTS | rRNA inh HTS OD600 | rRNA inh HTS RFP | RanGTP-Imp inh | MLL AF4-AF9 inh | FGF22 binding | T cruzi inh | Calb FLC | Beta cell apopt | ALR H2O2 inh
O=C(O)c1cc(S(=O)(=O)NCc2ccco2)c(Cl)cc1Cl | . | . | . | 2.5 | . | . | -8 | -9 | -5 | 3
CCCOc1ccc(C(CC(=O)O)NS(=O)(=O)c2ccc(NC(C)=O)cc2)cc1 (stereo not drawn) | . | . | . | -1.2 | . | . | -35 | 4 | 1 | 4
O=C(O)c1ccccc1CSc1ncn[nH]1 | . | . | . | 0.4 | . | . | -9 | 6 | 7 | -1

An excerpt of these results, in CSV form:
molecule,rRNA inh HTS,rRNA inh HTS OD600,rRNA inh HTS RFP,RanGTP-Imp inh,MLL AF4-AF9 inh,FGF22 binding,T cruzi inh,Calb FLC,Beta cell apopt,ALR H2O2 inh
Cc1c(NC(=O)C(C)N2C(=O)NC3(CCC(C)CC3)C2=O)c(=O)n(-c2ccccc2)n1C (stereo not drawn),10,15,2.3,-0.2,-0.7,i,-5,-3,-3,19
O=C(/C=C/c1ccccc1)NCC(=O)N/N=C/c1ccco1,4,3,2.2,3.2,-9.6,i,11,-2,0,0

Screening results (PubChem)
